Screening data from PubChem BioAssay.
CSC inhib: blocks cancer stem cells. AID 2717. inhibition, % at 7.5 µM. cancer stem cell-like cells viability, luminescence. 300,000 tested, 1.1% active;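 active means mean at 75% or more and at least half the replicates too; inconclusive means mean and replicates disagree; tested in HMLE shEcad cells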;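 further: 0% = median of negative and 100% = median of positive control wells; the first replicate is given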
eIF4H FP inh: inhibitors of RNA binding by human eIF4H; eIF4H fluorescence polarization binding assay; 290,000 tested, 0.94% active; Q15056; inhibition, % at 35 µM;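 active means 50% or more with normal probe brightness, or confirmed in later tests; inconclusive means above 50% with abnormal brightness, or retests that disagree; inactive means below 50% or failed in later tests; about a fifth of its hits are not listed in these tables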;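 further: calls also rest on retests at 20 µM and on dose response follow-up; 0% = protein and probe with vehicle and 100% = probe without protein; strong numbers were not always called active; many hits fall short of the cut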
MT1-MMP act inh: blocks activation of human MT1-MMP | P50281 | AID 651647 | 360,000 tested, 0.061% active | GFP/RFP ratio change, % at 20 µM | HT1080 RFP-PRO-GFP cells, GFP/RFP ratio fluorescence, overnight; percent of plate control window, DMSO zero;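 active means GFP/RFP ratio change of at least 30% with cell ATP level not reduced by more than half and red fluorescence within 50% of control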; further: strong numbers were not always called active
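Assay system – RFP-PRO-GFP reporter HT1080 cells · Compound dosing – single dose of 20 µM compound, 1% DMSO final · Incubation – overnight compound exposure at 37 °C · Measure – GFP/RFP fluorescence ratio · Benchmarks – DMSO wells and RFP-L50D-GFP cells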
UUG fidelity: yeast start codon fidelity modulation. S. cerevisiae UUG-firefly luciferase reporter, luminescence/redox ratio. activity score, % at 18.7 µM. 350,000 tested, 0.13% active. AID 602363;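 active means replicate mean at a twofold rise or more, about +100% in these data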;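 further: firefly luciferase made from a UUG start codon reports start codon fidelity; reporter light over untreated wells divided by growth signal over untreated wells; some hits fall short of that in this replicate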
PABP FP inh: blocks human PABP binding to poly(A) RNA; P11940; fluorescence polarization; inhibition, % at 35 µM; 290,000 tested, 1% active;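 active means 50% or more with normal probe brightness, or confirmed in later tests; inconclusive means above 50% with abnormal brightness, or retests that disagree; inactive means below 50% or failed in later tests; about a fifth of its hits are not listed in these tables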;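 further: calls also rest on retests at 20 µM and on dose response follow-up; controls were probe without protein and protein plus probe with vehicle; some compounds called inactive have numbers as strong as hits; many hits fall short of the cut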
Target sequence (P11940 whole entry, looked up): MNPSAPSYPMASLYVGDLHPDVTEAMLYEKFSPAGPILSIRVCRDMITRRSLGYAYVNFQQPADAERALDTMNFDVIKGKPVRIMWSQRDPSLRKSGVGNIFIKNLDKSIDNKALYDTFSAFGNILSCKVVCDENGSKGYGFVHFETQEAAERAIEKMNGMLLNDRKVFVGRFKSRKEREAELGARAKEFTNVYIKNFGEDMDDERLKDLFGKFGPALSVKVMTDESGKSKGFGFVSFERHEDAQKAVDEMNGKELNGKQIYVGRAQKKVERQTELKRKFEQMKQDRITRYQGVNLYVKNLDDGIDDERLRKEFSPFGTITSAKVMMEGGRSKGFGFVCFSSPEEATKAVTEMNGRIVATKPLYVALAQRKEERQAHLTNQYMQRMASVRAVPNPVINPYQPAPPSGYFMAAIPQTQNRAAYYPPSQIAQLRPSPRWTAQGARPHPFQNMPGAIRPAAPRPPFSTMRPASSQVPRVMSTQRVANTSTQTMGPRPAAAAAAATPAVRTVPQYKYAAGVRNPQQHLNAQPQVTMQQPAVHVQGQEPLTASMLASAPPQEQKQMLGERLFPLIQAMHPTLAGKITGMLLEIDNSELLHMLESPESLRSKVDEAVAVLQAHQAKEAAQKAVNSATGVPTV
Rce1 inhib: blocks yeast Ras-converting enzyme; Q03530; calls only; 290,000 tested, 0.27% active; yeast membranes, quenched prenylated peptide cleavage fluorescence;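 active means fall in fluorescence gain of 50% or more versus controls, with final raw signal at or below 3038400; inconclusive means same 50% fall but final raw signal above 3038400; inactive means fall in fluorescence gain under 50%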;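 further: plate controls were neutral control wells for no effect and wells lacking membranes for full effect; tested at 10 µM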
Target sequence (Q03530 whole entry, looked up): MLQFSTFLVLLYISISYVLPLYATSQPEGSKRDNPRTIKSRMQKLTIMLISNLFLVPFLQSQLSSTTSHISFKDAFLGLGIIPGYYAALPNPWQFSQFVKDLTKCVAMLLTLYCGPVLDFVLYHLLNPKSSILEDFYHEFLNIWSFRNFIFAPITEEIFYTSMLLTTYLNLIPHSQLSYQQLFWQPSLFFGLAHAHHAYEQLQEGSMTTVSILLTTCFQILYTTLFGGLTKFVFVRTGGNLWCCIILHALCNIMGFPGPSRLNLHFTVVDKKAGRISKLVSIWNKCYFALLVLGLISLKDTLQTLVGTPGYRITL
HIV Env fusion: HIV envelope-mediated fusion inhibition. inhibition, % at 12.3 µM. AID 651610. 360,000 tested, 1.1% active. HeLa-JRFL Env/CEM21 cell fusion, luciferase;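 active means mean replicate inhibition score of at least 50 and every replicate individually at or above 50; inconclusive means only one of the two criteria met; inactive means mean below 50 and not all replicates reaching 50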;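 further: 0% = plate neutral controls and 100% = maraviroc near 300 nM; one replicate is shown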
MT1-MMP act inh RFP: recorded beside MT1-MMP act inh, whose call it bears; RFP signal change, %; measured here: RFP expression control read;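 0 = vehicle wells; hits needed this value within 50% of zero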
Numbers without * were called inactive; i = inactive; ? = inconclusive; . = not tested or not shown; + = active, no number.

SMILES,CSC inhib,eIF4H FP inh,MT1-MMP act inh,MT1-MMP act inh RFP,UUG fidelity,PABP FP inh,Rce1 inhib,HIV Env fusion
Cc1ccnc2nc(C(=O)OCC(=O)N(C)C3CCCCC3)nn12,.,.,-4,0,-4,.,.,-13
CCNC(=O)c1ccc(-n2nc(C(F)(F)F)c3c2CCCC3)cc1,7,-5,-4,-7,6,-8,i,28
CCN(CC)c1ccc(C(=O)N/N=C(\C)c2ccc(OC)c(OC)c2)cc1,16,6,4,10,.,-6,i,22
FC(F)(F)c1ccccc1NC(=S)N1CCCCCC1,-8,-1,1,3,-18,-8,i,-15
Cc1ccc2ncccc2c1N,-11,-3,-2,3,-4,-2,i,-30
COc1cc(NC(=O)COC(=O)c2nc3nc(C)cc(C)n3n2)cc(OC)c1,-15,6,-3,1,-11,2,i,-14
Cc1ccc(-n2c(-c3ccncc3)n[nH]c2=S)cc1C,-6,-6,2,4,-22,-15,.,-10
Cc1ccc(C)n1-c1ccc(C(=O)NCc2ccncc2)cc1,-12,8,-3,-1,.,0,i,-27
C[C@@H](NC(=O)[C@@H]1Cc2ccccc2CN1)C(=O)NC1CCCCC1,-13,0,3,3,-7,4,i,8
Cn1nnc2cc(NC(=O)Nc3cccc(C(F)(F)F)c3)ccc21,-6,0,0,-1,-16,5,i,7
COc1ccc(NC(=S)N2C3CCC2CC(NC(=O)NC24CC5CC(CC(C5)C2)C4)C3)c(OC)c1 (centres undefined),.,6,6,2,-21,-1,i,.
O=C(Nc1ccc(C(=O)N2CCCCC2)cc1)Nc1cccc(Cl)c1,37,-2,7,-1,-4,2,i,-40

(cont.)
SMILES,CSC inhib,eIF4H FP inh,MT1-MMP act inh,MT1-MMP act inh RFP,UUG fidelity,PABP FP inh,Rce1 inhib,HIV Env fusion
COc1ccc(NCCc2ccccn2)cc1,-6,2,-1,1,0,20,i,-6
CCOc1ccccc1NS(=O)(=O)c1ccc(OC)c(OC)c1,-4,5,1,-3,-6,0,.,30
CC(=O)c1cccc(NS(=O)(=O)c2ccc(-c3cnc(C4CC4)o3)cc2)c1,63,-7,-8,-29,-3,-1,i,17
CCN(CC)CCN(C(=O)c1ccc(N2C(=O)CCC2=O)cc1)c1nc2cc3c(cc2s1)OCO3,-19,2,.,.,.,-4,i,14
CCN(C(=O)CCN1C(=O)S/C(=C\c2ccccc2)C1=O)C1CCS(=O)(=O)C1 (centres undefined),-5,8,-6,-6,-20,1,i,10
Cc1ccc(C)n1CCN1CCN(C(=O)c2ccc(Cl)cc2)CC1,-10,0,-3,-1,-15,2,i,-2
Cc1onc(-c2ccccc2)c1NC(=O)N(CCC(=O)O)Cc1ccccc1,-10,0,0,0,-1,1,.,-12
COC(=O)C1=C(C)N(Cc2ccccc2)C(=S)N[C@H]1c1ccc(Br)cc1,48,.,-1,-7,-20,.,.,67*
Cc1ccc(S(=O)(=O)C(C#N)c2nc3ccccc3nc2OCCO)cc1 (centres undefined),23,8,7,-1,.,7,i,-3
CN(C)S(=O)(=O)c1cccc(NC(=O)CN2C(=O)NC(CCc3ccccc3)C2=O)c1 (centres undefined),2,0,0,2,.,5,i,1
COc1ccccc1N1CCN(C2=CC(=O)CCC2)CC1,-12,8,-2,3,5,-2,i,.
N/C(=N\N=C\c1cccs1)SC1CC(=O)N(c2cccc([N+](=O)[O-])c2)C1=O (centres undefined),-10,0,7,2,.,-1,i,8

(continued)
SMILES,CSC inhib,eIF4H FP inh,MT1-MMP act inh,MT1-MMP act inh RFP,UUG fidelity,PABP FP inh,Rce1 inhib,HIV Env fusion
O=C(CCn1c(=S)[nH]c2cc3c(cc2c1=O)OCO3)NCc1ccccc1Cl,-1,-14,-1,-2,-14,4,i,9
CCOC(=O)NCCc1c(C)nc2c(c(C)nn2C(C)(C)C)c1C,12,-11,-9,-7,9,-2,i,0
CCn1c(-c2ccc([N+](=O)[O-])cc2)n[nH]c1=S,-4,-6,-3,-1,-15,-2,i,-181
CCOC(=O)Cc1nnc(NC(=O)COc2ccc(F)cc2)s1,-15,-1,11,4,-15,10,i,?
COC(=O)c1cc2sccc2n1CC(=O)Nc1cc(OC)cc(OC)c1,-6,6,0,-3,-18,-13,i,.
CCOC(=O)CCSc1nc(C)c2cc(C)c(C)cc2n1,.,-3,5,0,-1,21,i,.
CCCCNC(=O)c1cc2c(=O)n3cccc(C)c3nc2n(Cc2ccccc2)c1=N,.,-2,-3,-6,-2,-4,+,.
CCOc1ccc(S(=O)(=O)N(C)CC(=O)NCc2ccco2)cc1,0,-7,1,3,1,5,i,2
COc1cc(CCC(=O)OCC(=O)Nc2ccc(Br)cc2F)cc(OC)c1OC,-10,6,5,3,1,6,i,-8
CC(C)Oc1cccc(C(=O)C2CCCN(S(=O)(=O)C(C)C)C2)c1 (centres undefined),9,-4,5,-2,.,7,i,19
O=C(c1cccc(Cl)c1)c1nn(-c2ccccc2)c(=O)cc1C(F)(F)F,57,-4,0,-4,-5,-3,.,.
COc1cccc2cc(C(=O)C3=C(O)C(=O)N(Cc4ccco4)C3c3cccnc3)oc12 (centres undefined),-2,4,4,3,4,11,i,.

(further entries)
SMILES,CSC inhib,eIF4H FP inh,MT1-MMP act inh,MT1-MMP act inh RFP,UUG fidelity,PABP FP inh,Rce1 inhib,HIV Env fusion
Cc1c(C(=O)NC(c2ccccn2)C(F)(F)F)oc2c(F)cccc12 (centres undefined),-4,-4,-1,2,.,-3,i,8
O=C(COC(=O)c1cccnc1Cl)Nc1ccc2c(c1)OCO2,-2,-3,4,1,-17,-4,i,11
CCC(C)N(C(=O)COC(=O)CNC(=O)c1sc2ccccc2c1Cl)C1CCS(=O)(=O)C1 (centres undefined),5,8,-1,0,8,4,i,-11
CC(C)CCN(C)c1ccc(/C=N/n2cnnc2)cc1,2,6,7,2,4,12,.,.
COc1cc2c(cc1OC)C(c1cccc([N+](=O)[O-])c1)N(C(=O)c1ccc(F)cc1)CC2 (centres undefined),2,-4,-2,-8,-11,3,i,.
Cc1ccc(S(=O)(=O)c2c(C)c(C)c(C)[nH]c2=O)cc1,-18,-3,0,-3,1,-3,i,17
CCC(CC)C(=O)c1c[nH]c(C(=O)NC2CCCCCC2)c1,11,3,-7,-2,-4,0,i,-13
Cc1onc(-c2ccccc2)c1C(=O)NCC(O)c1ccccc1 (centres undefined),.,0,-1,0,.,13,i,0
O=C(c1ccc([N+](=O)[O-])o1)N1CCCCCC1,-18,.,1,-2,-8,.,.,.
CC(=O)Nc1ccc(S(=O)(=O)N2CCC(N3CCCC3)CC2)cc1,-5,10,-4,3,-7,12,i,-14
Nc1ccc(C(=O)Nc2nccs2)cc1,-2,-4,-2,2,-14,-1,i,-21
O=C(COc1coc(CN2CCN(c3ccccc3)CC2)cc1=O)Nc1ccccc1F,3,.,5,-1,-10,.,i,7

(listing goes on)
SMILES,CSC inhib,eIF4H FP inh,MT1-MMP act inh,MT1-MMP act inh RFP,UUG fidelity,PABP FP inh,Rce1 inhib,HIV Env fusion
Cc1ccc(C)c(N2CCN(C(=O)CCC(=O)N3CCOc4ccc(Cl)cc43)CC2)c1,45,-6,-2,-20,-7,-5,i,45
CN1C(=O)/C(=C\C(=O)c2cccs2)c2ccccc21,.,9,-6,-2,.,1,i,-8
CCC(C)Oc1cccc(OCCCCN2C(=O)NC(C)(C)C2=O)c1 (centres undefined),3,-5,1,-1,-13,2,i,1
CC(=O)Nc1ccc(S(=O)(=O)NC(C)C(=O)OCCOc2ccc(F)cc2)cc1 (centres undefined),-9,.,-3,0,-8,.,.,-4
Oc1ccc(C[C@@H]2CNCCN2CCc2cc(C(F)(F)F)cc(C(F)(F)F)c2)cc1,36,.,-7,-3,-9,.,i,10
COc1cccc(N2CCN(Cc3nnnn3C3CCCCC3)CC2)c1,-3,-7,-4,1,.,1,i,0
Cc1c(C(=O)NCc2ccccc2C(F)(F)F)sc(=O)n1Cc1ccc2ccccc2c1,.,.,7,3,-21,.,.,-22
COc1cc(/C=N/NC(=O)c2cc(C)n(-c3ccc(F)cc3)c2C)cc(OC)c1O,6,1,1,4,-8,4,i,4
CCOC(=O)C(=CNNc1ccccc1)C(=O)OCC,49,-9,-1,4,-28,4,i,-56
CC/C(=N\NC(=O)c1cc(C2CC2)[nH]n1)c1ccccc1,-7,1,0,0,-24,-7,i,-34
CS(=O)c1ccccc1-c1nc(-c2cccc(Cl)c2)no1 (centres undefined),14,-7,4,0,-21,3,i,-22
COc1cc(NC(=O)c2cc(CC(C)C)on2)c(OC)cc1Cl,-11,-8,2,-3,-20,5,i,37

The final two records of the section above open the next one.
SMILES,CSC inhib,eIF4H FP inh,MT1-MMP act inh,MT1-MMP act inh RFP,UUG fidelity,PABP FP inh,Rce1 inhib,HIV Env fusion
CS(=O)c1ccccc1-c1nc(-c2cccc(Cl)c2)no1 (centres undefined),14,-7,4,0,-21,3,i,-22
COc1cc(NC(=O)c2cc(CC(C)C)on2)c(OC)cc1Cl,-11,-8,2,-3,-20,5,i,37
COCCNC(=O)CCCn1c(=O)c2cc(OC)c(OC)cc2n(CC(=O)Nc2ccc(C)c(F)c2)c1=O,-9,-1,1,1,.,-3,i,-19
CC1CCCN(C(=O)CN2C(=O)C(C)Oc3ccccc32)C1 (centres undefined),-8,-2,-3,-1,-21,9,i,-1
CC(C)OCCCNC(=O)CCCC(=O)Nc1ccc(OCCc2ccccc2)cc1,4,-4,6,-4,-2,8,i,-12
CCCn1c(SCC(=O)c2c(N)n(C3CC3)c(=O)[nH]c2=O)nc2cc(S(N)(=O)=O)ccc21,.,.,3,3,-14,.,.,1
CC(=O)Nc1ccc(S(=O)(=O)NCCSCc2c(Cl)cccc2Cl)cc1,-3,-1,8,-6,-2,2,i,-1
COc1ccc(NC(=S)N2CCC(c3nc4ccccc4[nH]3)CC2)c(OC)c1,-3,7,0,1,-16,-14,i,.
CC(/C=C(\NC(=O)c1ccccc1)C(=O)N=Nc1c(O)[nH]c2ccc(C)cc12)=C\c1ccccc1,15,3,-2,-7,-15,2,i,.
O=C(NCCc1nc(-c2ccc(F)cc2)no1)c1ccc(F)cc1,-8,.,1,1,-22,.,.,-1
Cc1ccc(-c2n[nH]c3c2C(c2ccccc2)N(c2ccc(C(=O)O)cc2)C3=O)cc1 (centres undefined),-3,-12,1,-7,-13,-8,i,27
O=C(NCCC(=O)N1CCN(c2ncccn2)CC1)c1ccccc1,-13,-1,8,3,-13,4,i,-2
NC(=O)NC(=O)COC(=O)[C@H](Cc1ccccc1)NC(=O)c1cccs1,-10,0,4,4,1,-13,i,-9

Some of the compounds tested (hit frequency here may not be typical).
